Vaccinia Venus: vaccinia inhibition (Venus reporter). Vaccinia virus Venus reporter expression, fluorescence. Potency, µM (top dose mostly 36.5 µM), for the others: at the top dose activity change, negative = inhibition, actives largely listed as inhibitors. 330,000 tested, 0.46% active. AID 720580; active means well fitted inhibition curve with a large enough effect; inconclusive means small, poorly fitted or top-dose-only effect; inactive means no such curve, though single readings can be large or run the other way; tested in A549 cells; note: nearly all actives have a fitted effect of over 30% in size; inactives centre near -10
VACV mCherry inh: inhibitors of vaccinia virus infection (mCherry reporter signal); Vaccinia virus mCherry reporter infection, fluorescence; about a quarter of the inactives have no number; Potency, µM (doses to about 36.5 µM), inactives show top-dose activity change, negative = inhibition, most hits filed as inhibitors; 310,000 tested, 0.63% active; active = well fitted inhibition curve with a large enough effect; inconclusive = small, poorly fitted or top-dose-only effect; inactive = no such curve, though single readings can be large or run the other way; tested in A549 cells; note: nearly all actives have a fitted effect of over 35% in size; inactives centre near -10
Starred values were filed as active, the others as inactive; i = inactive; ? = inconclusive; · = no result given; & = joins results of further samples; [ ] = remark or other dose. % is set by controls: 0 for no effect and ±100 for the full control effect; potency is the fitted concentration of half-maximal effect.

Start of the data: the first 16 entries, to show the layout:
SMILES	Vaccinia Venus	VACV mCherry inh
CC(=O)Nc1ccc(S(=O)(=O)NC(CC(=O)N2CCC3(CC2)OCCO3)C(C)C)cc1 (stereo unspecified)	17%	·
Cc1ccc(S(=O)(=O)Oc2ccccc2/C=C2\SC(=O)NC2=O)cc1	-4%	i
CC(=O)NCc1ccc2[nH]c(C)cc2c1	-1%	-18%
CC1(Oc2ccc(-n3ccnc3)cc2)CCN(Cc2cccn2-c2nccs2)C1 (stereo unspecified)	0%	0%
COCCN(C(=O)c1csnn1)C(C(=O)NC1CCCC1)c1ccc(C)cc1 (stereo unspecified)	22%	0%
CCCC(=O)C1=C(c2ccc(C)cc2)N(C(=O)CCC)n2cnnc2S1	?	?
O=C(Nc1ccnn1C1CCN(Cc2ccc(O)c(Cl)c2)CC1)C1CCCC1	-12%	-19%
CC(c1ccco1)N(C(=O)c1ccc(C(F)(F)F)cc1)c1ccccn1 (stereo unspecified)	-9%	-11%
CCSc1cc(N2CCCC2)nc(-c2ccccc2)n1	-11%	·
O=C(Nc1sc2c(c1C(=O)O)CCCCC2)c1ccccc1	-24%	i
O=C(Nc1ccc2c(c1)S(=O)(=O)N=C1CCCCCN12)c1ccccc1Cl	-12%	12%
COc1ccccc1-c1nnc(Nc2nc3c(OC)cccc3s2)o1	-29%	?
O=C(Cn1cc(C(F)(F)F)cc(Cl)c1=O)Nc1cc(S(=O)(=O)N2CCOCC2)ccc1Cl	-12%	i
O=C(COC(=O)c1cc[n+]([O-])cc1)Nc1cccc(Br)c1	-3%	i
O=C(CSc1nnc(-c2cccnc2)o1)c1cc2ccccc2oc1=O	-1%	·
COc1ccc(C2NC(c3ccc(OC)cc3OC)C(C)C(=O)C2C)c(OC)c1 (stereo unspecified)	-9%	-7%

The list itself, from the start:
SMILES	Vaccinia Venus	VACV mCherry inh
CC(=O)Nc1ccc(S(=O)(=O)NC(CC(=O)N2CCC3(CC2)OCCO3)C(C)C)cc1 (stereo unspecified)	17%	·
Cc1ccc(S(=O)(=O)Oc2ccccc2/C=C2\SC(=O)NC2=O)cc1	-4%	i
CC(=O)NCc1ccc2[nH]c(C)cc2c1	-1%	-18%
CC1(Oc2ccc(-n3ccnc3)cc2)CCN(Cc2cccn2-c2nccs2)C1 (stereo unspecified)	0%	0%
COCCN(C(=O)c1csnn1)C(C(=O)NC1CCCC1)c1ccc(C)cc1 (stereo unspecified)	22%	0%
CCCC(=O)C1=C(c2ccc(C)cc2)N(C(=O)CCC)n2cnnc2S1	?	?
O=C(Nc1ccnn1C1CCN(Cc2ccc(O)c(Cl)c2)CC1)C1CCCC1	-12%	-19%
CC(c1ccco1)N(C(=O)c1ccc(C(F)(F)F)cc1)c1ccccn1 (stereo unspecified)	-9%	-11%
CCSc1cc(N2CCCC2)nc(-c2ccccc2)n1	-11%	·
O=C(Nc1sc2c(c1C(=O)O)CCCCC2)c1ccccc1	-24%	i
O=C(Nc1ccc2c(c1)S(=O)(=O)N=C1CCCCCN12)c1ccccc1Cl	-12%	12%
COc1ccccc1-c1nnc(Nc2nc3c(OC)cccc3s2)o1	-29%	?
O=C(Cn1cc(C(F)(F)F)cc(Cl)c1=O)Nc1cc(S(=O)(=O)N2CCOCC2)ccc1Cl	-12%	i
O=C(COC(=O)c1cc[n+]([O-])cc1)Nc1cccc(Br)c1	-3%	i
O=C(CSc1nnc(-c2cccnc2)o1)c1cc2ccccc2oc1=O	-1%	·
COc1ccc(C2NC(c3ccc(OC)cc3OC)C(C)C(=O)C2C)c(OC)c1 (stereo unspecified)	-9%	-7%
Cc1c(Cl)cccc1NC(=O)N1CCC(CN2CCCC2)CC1	-9%	-11%
COCCN(C(=S)Nc1ccccc1OC)C1CCN(C(C)=O)CC1	-14%	i
CC(C)(C)c1ccc(C(O)c2ncc(-c3cccc(F)c3)[nH]2)cc1 (stereo unspecified)	-24%	-22%
CC1(C(=O)NS(=O)(=O)c2ccc(Cl)cc2)CCN1C(=O)Cc1cc(F)ccc1F (stereo unspecified)	6%	0%
NCC1OC(OC2C(N)CC(N)[C@@H](O)[C@@H]2OC2O[C@H](CO)[C@@H](O[C@@H]3OC(CN)C(O)C(O)C3N)C2O)C(N)C(O)C1O (stereo partly specified)	-3%	-10%
O=C(Nc1ncccn1)c1ccc(C(F)(F)F)cc1	-8%	-16%
O=C(O)CCOc1ccc2c(c1)OCCO2	-11%	·
Cc1ccc(CNc2nc3ccccc3n3c(C)nnc23)cc1	1%	-2%
CCN(CC)CCSc1nnc(Nc2ccccc2)n1-c1ccccc1	2%	-9%
CC(=O)Nc1ccc(NC(=O)CSc2nc3nc(C)cc(C)c3c(=O)[nH]2)cc1	7%	-11%
O=C(O)c1cc2nc(-c3ccccc3)cc(-c3ccccc3)n2n1	-5%	13%
COc1ccc(CCNC(=O)Cn2nc([N+](=O)[O-])c(Br)c2C)cc1OC	-10%	-8%
Cc1ccc2c(c1)NC(=O)c1cc([N+](=O)[O-])ccc1O2	-18%	-9%
Cc1cccc([C@@H]2[C@@H]3C(=O)N(Cc4ccccc4)C(=O)[C@@H]3[C@]3(C)C(=O)N(c4ccc(C(F)(F)F)cc4)C(=O)N23)c1	-28%	-1%
CCCCCCCCCCCCCCCC[N+](C)(C)CCN(Cc1ccc(OC)cc1)c1ncccn1	13µM*	?
CCc1ccc(NC(=O)CC2C(=O)NCCN2C(=O)c2ccccc2OC)cc1 (stereo unspecified)	-14%&-9%	-3%&-3%
O=C(O)C1CCCCC1C(=O)Nc1ccc2c(c1)CCC2 (stereo unspecified)	?	·
COc1ccc(/C=N/Nc2ccccn2)cc1O	-18%	?
Cc1ccc(S(=O)(=O)c2cc3ccccc3oc2=O)cc1	1%	i
COc1cc(CN=C(C)c2c(O)n(C3CCCCC3)c(=O)[nH]c2=O)cc(OC)c1	-9%	-21%
COc1cc(NC(=O)C2CCCN(S(=O)(=O)c3cnc[nH]3)C2)cc(OC)c1 (stereo unspecified)	8%	7%
Cc1ccc(/C=N/Nc2nncn2N)cc1	10µM*	10µM*
CC(C)NC(=O)C1C(c2ccc(C(F)(F)F)cc2)=Nc2ccccc2N1C(=O)c1cccc(C(F)(F)F)c1 (stereo unspecified)	-10%	?
CCSc1ccccc1C(=O)N1CCC2(CC1)CC(=O)c1ccccc1O2	-17%	-20%
CC(C)Sc1nc2ccsc2c(=O)[nH]1	1%	-7%
Cc1ccc(S(=O)(=O)Nc2nc3ccccc3s2)cc1[N+](=O)[O-]	-22%	-22%
CCCCOC(=O)C1C2CCC(O2)C1C(=O)OCC (stereo unspecified)	-17%	-6%
Cc1ccc(S(=O)(=O)N2CCCC(C(=O)N3CCN(c4ccccc4)CC3)C2)cc1 (stereo unspecified)	?	-19%
CCOC(=O)Cc1csc(NC(=O)CSc2nc3sc(C(=O)O)c(C)c3c(=O)[nH]2)n1	-4%	-7%
COc1ccc(C2SCCN2S(=O)(=O)c2ccccc2)cc1 (stereo unspecified)	?	?
COCCN1CN=C(Nc2nc3ccccc3o2)NC1	-17%	·
CS(=O)(=O)c1ccc2nc(NC(=O)c3ccc(Cl)nc3)sc2c1	-5%	i
Cn1c(SCC(=O)Nc2ccccc2Cl)nnc1C1CC1	3%	i
COc1ccccc1Cc1c(-c2ccc(F)cc2)nc2cc(C)c(Br)c(C)n12	9%	i
Cc1ccc(CNC(=O)CN(Cc2ccccc2)S(C)(=O)=O)cc1	-12%	-16%
CN(Cc1cc2ccccc2[nH]c1=O)C(=O)C1CCCCC1	-10%	·
CCCCCCC(=O)Oc1ccc(N2C(=O)CCC2=O)cc1	3%	i
Cc1ccc(C(c2nnnn2CS(=O)(=O)c2ccc(C)cc2)N2CCC(C(N)=O)CC2)cc1 (stereo unspecified)	-14%	i
CC(C)CN(CC(C)C)C(=O)Nc1ccc(F)cc1F	-5%	0%
COc1ccc2nc(N(Cc3cccnc3)C(=O)CCc3ccccc3)sc2c1	-12%	-4%
CNC(=O)Cn1c(=O)n(C)c2ccccc21	0%	-15%[1.46 µM]
NC(Cc1ccccc1)c1csc(Nc2nncc3ccccc23)n1 (stereo unspecified)	?	?
CC1CCN(C(=O)c2[nH]cnc2C(=O)NCC(=O)OC(C)(C)C)CC1	-16%	-12%
O=C(NCc1ccccc1)c1nnc(CS(=O)(=O)c2ccccc2)o1	-9%	i

Continued; the last 2 above are carried over.
SMILES	Vaccinia Venus	VACV mCherry inh
CC1CCN(C(=O)c2[nH]cnc2C(=O)NCC(=O)OC(C)(C)C)CC1	-16%	-12%
O=C(NCc1ccccc1)c1nnc(CS(=O)(=O)c2ccccc2)o1	-9%	i
CC1(/[N+]([O-])=C\c2ccccc2F)CCCCC1=O (stereo unspecified)	-11%	-9%
OCCN1CCN(CC(O)COc2ccc3ccccc3c2)CC1 (stereo unspecified)	0%&-2%	-3%[1.46 µM]
O=C(NCc1nc2ccccc2[nH]1)C1=C[C@@H](c2ccc(Br)cc2)C[C@@H](OCCCCO)O1	?	-5%
Fc1ccc(-c2nc3c(Cl)cc(C(F)(F)F)cn3c2Cc2cccc(F)c2)cc1	-27%	-16%
CCc1nnc(NS(=O)(=O)c2ccc(NC(=O)c3cc(Cl)ccc3Cl)cc2)s1	3%	-19%
Cc1cc(Br)cc(Br)c1OCC(=O)NNC(=O)Nc1ccccc1	-10%	i
O=C(c1ccccc1F)N1CCN(c2ccc([N+](=O)[O-])c3ncccc23)CC1	-26%	-23%
CC(C)(C)C(=O)/C=C(\N)c1ccncc1	-22%	·
COc1cc(C2CC(=O)Nc3c2c(=O)[nH]c2ncnn32)ccc1O (stereo unspecified)	-3%[7.34 µM]	-3%[7.34 µM]
COc1cc(/C(C#N)=C/c2ccccc2)c([N+](=O)[O-])cc1OC	-23%	-7%
CCOc1ccc2nc(SC3CC(=O)N(c4cccc(OC)c4)C3=O)sc2c1 (stereo unspecified)	-2%	-16%
Cc1cc(OCC(=O)N2CCCC2)cc(C)c1Cl	-11%	-17%
CCN(CC(=O)Nc1cc(Cl)ccc1C)C(=O)c1oc2ccc(OC)cc2c1C	-6%	i
CC(C)c1nc(NCc2ccccc2)c(C#N)c2c1CCCC2	-8%	i
C=CCNC(=O)c1cccc2c1C(=O)c1ccc(N3CCOCC3)cc1S2(=O)=O	-11%	-16%
O=C1C(Cl)=C(N2CCOCC2)C(=O)N1c1cccc(C(F)(F)F)c1	-10%	-2%
c1ccc2cc(CSCc3nc4ccccc4[nH]3)ccc2c1	-23%	-34%
Cc1ccc(C)c(N2CCN(C(=O)CCS(=O)(=O)c3ccc4c(c3)CCN4C(=O)C3CC3)CC2)c1	-12%[7.34 µM]	i[7.34 µM]
O=c1cc(/N=C/c2coc3c(ccc4ccccc43)c2=O)[nH]c(=S)[nH]1	-5%	-27%
Cc1ccc(OCc2nnc(SCC(=O)NCc3ccco3)n2C)cc1	-3%	-21%
CCN(CC)CCN1C(=O)C2C3c4ccccc4C(c4ccccc43)C2C1=O (stereo unspecified)	-15%	-20%
CCOc1ccc(-c2nnc(-c3ccco3)o2)cc1	-18%	-1%
Cc1ccc(/C=N/c2sc3c(c2C#N)CCCCC3)o1	-8%	·
COP(=O)(OC)C(=NNS(=O)(=O)c1ccc(C)cc1)c1ccccc1	?	-13%
CC(=O)Nc1ccc(SCC(=O)c2cc(C)n(C)c2C)cc1	-7%	-12%
CC(C)c1ccccc1NC(=O)C1CN(S(=O)(=O)c2ccccc2)CCN1S(=O)(=O)c1ccccc1 (stereo unspecified)	-4%	i
O=C(CNC(=O)c1nc[nH]c1C(=O)N1CCN(c2ccccc2)CC1)OCc1ccccc1	-7%	i
Cc1nnnn1-c1cccc(C(=O)O)c1	-2%	-8%
Cc1ccc(N(C(=O)CS(=O)CC(=O)Nc2ccc(F)cc2)C(C(=O)NC2CCCCC2)c2ccco2)cc1 (stereo unspecified)	-8%	-11%
O=C1COc2ccc(C(=O)COc3ccc(Cl)cc3Br)cc2N1	-12%	-27%
Cc1ccc(NC(=O)c2nc(S(=O)(=O)Cc3ccc(F)cc3)ncc2Cl)cc1C	?	-27%
Cc1ccc(-c2csc3nc[nH]c(=O)c23)cc1C	-17%	i
FC(F)(F)c1cc(Cl)c2nc(-c3ccccc3)c(Cc3ccsc3)n2c1	-7%	-4%
COc1ccc(OC)c(-n2nnnc2SCC(=O)Nc2cc(C)ccc2OC)c1	-14%	?
CCCCOc1ccc(CN2CCN(CC)CC2)cc1	-15%	·
O=C(N/N=C/C=C/c1ccc2c(c1)OCO2)C(O)c1ccccc1 (stereo unspecified)	-3%	-8%
CC(C)C(NC(=O)c1ccc2c(c1)OCO2)C(=O)N/N=C/c1cccs1 (stereo unspecified)	-16%	-15%
COCCN1CCN(C(=O)C2CCC(=O)N(Cc3ccccc3F)C2)CC1 (stereo unspecified)	-10%	-7%
CC(=O)N1CCC(N(CCN2CCOCC2)C(=O)Nc2ccc(Cl)c(Cl)c2)CC1	2%	18%
Cc1cc(C)c2oc(-c3ccc(Cl)c(NC(=O)c4cccs4)c3)nc2c1	-2%	2%
O=C(C[n+]1ccccc1)N/N=C/c1ccc(Cl)c(Cl)c1	-15%	-14%
Cc1ccc(NC(=O)Cn2c(-c3nonc3N)nc3ccccc32)c(Br)c1	-22%	-7%
C=CCN1C(=O)C(O)(CC(=O)c2ccc(N)cc2)c2ccccc21 (stereo unspecified)	-15%	-20%
O=C(O)c1ccc(C2NCC(c3ccccc3Cl)c3c2[nH]c2ccccc32)cc1 (stereo unspecified)	-4%	-1%
CCN(CC)C(=O)Cn1c(=O)n(-c2ccc(C)c(C)c2)c(=O)c2c(C)c(C(=O)N(CC)CC)sc21	-6%	2%
CCOc1ccccc1NC(=O)N1CCN(S(C)(=O)=O)CC1	-2%	-3%
CC(C)NC(=O)C1(C)CSCC(=O)N1Cc1ccco1 (stereo unspecified)	-7%	-9%

Source: PubChem (National Center for Advancing Translational Sciences (NCATS))
